Bioassay records (PubChem)
TRPML1 blocker = inhibitors of human TRPML1 channel. hit rate 0.02% among 390,000. AID 624415. activity change, negative = inhibition, % (no concentration beside the values). Q9GZU1. TRPML1-inducible cells, Ca2+ dye fluorescence, FDSS; active compounds read low; inhibition of EC80 agonist-evoked calcium signal; in the data active means activity change below about -50%; inconclusive means about -30% to -50%; inactive means above about -30%;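 also: stimulus is agonist 54-4 at its EC80 concentration; % is scaled to controls: 0 for no effect and ±100 for the full control effect; compound concentration not given in the record; the text of the record puts the active cut at -80%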
Target sequence (Q9GZU1 whole entry, looked up): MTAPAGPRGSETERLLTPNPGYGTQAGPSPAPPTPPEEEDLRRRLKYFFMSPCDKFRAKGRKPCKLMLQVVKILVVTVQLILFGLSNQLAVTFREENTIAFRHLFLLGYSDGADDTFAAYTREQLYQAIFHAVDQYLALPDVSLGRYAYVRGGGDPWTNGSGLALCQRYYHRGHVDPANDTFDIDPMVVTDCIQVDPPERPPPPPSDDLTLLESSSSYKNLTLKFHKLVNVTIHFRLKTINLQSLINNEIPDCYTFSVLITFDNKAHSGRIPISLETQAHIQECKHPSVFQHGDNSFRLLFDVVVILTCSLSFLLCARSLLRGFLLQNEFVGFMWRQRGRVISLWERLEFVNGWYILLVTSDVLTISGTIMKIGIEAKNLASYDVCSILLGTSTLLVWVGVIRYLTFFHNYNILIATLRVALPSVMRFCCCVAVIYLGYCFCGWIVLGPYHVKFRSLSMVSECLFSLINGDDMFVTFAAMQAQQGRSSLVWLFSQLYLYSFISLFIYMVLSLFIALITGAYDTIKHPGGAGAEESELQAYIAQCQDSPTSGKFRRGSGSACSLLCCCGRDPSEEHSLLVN
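Tet-induced TRPML1-DL cells loaded with Ca8 no-wash calcium dye were read kinetically on FDSS. Compound addition was followed by EC80 agonist 54-4 (4 uM final); inhibition was read over 110 s.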
CtBP-E1A blk = blocks the CtBP interaction with E1A; hit rate 0.49% among 340,000; AlphaScreen GST-E1A/His-CtBP binding, 1536-well; active compounds read low; control for the full effect not named in the record; activity change, % (no concentration beside the values); in the data active means activity change below about -65%; inconclusive means about -30% to -65%; inactive means above about -30%; also: % is scaled to controls: 0 for no effect and ±100 for the full control effect
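GST-E1A and His-tagged CtBP (125 nM each as 5X stock) were preincubated with pin-transferred compound for 2 h at 37 °C in the dark, then glutathione donor and nickel acceptor beads were added for 1 h before AlphaScreen reading.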
TRPML1 agonist = activates the human TRPML1 channel; Q9GZU1; activation, % (test concentration not listed); hit rate 0.12% among 410,000; AID 624414; TRPML1-expressing cells, Ca2+ dye fluorescence, FDSS; host cell line not named in the record; reference of the full effect not given here; in the data active = activation above about 50%; inconclusive = about 30% to 50%; inactive = below about 30%; also: 0% is about no effect; the text of the record puts the active cut at 80%
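Tetracycline-induced TRPML1-DL cells are seeded and incubated overnight before loading with a no-wash Ca2+ dye and quencher. Agonist activity is taken from the 110 s fluorescence read following compound pin-transfer on an FDSS, before EC80 54-4 challenge.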
Six1-Eya2 inh = inhibitors of human Six1/Eya2 interaction. activity change, % (no concentration beside the values). Q15475+O00167. AlphaScreen GST-Six1/His-Eya2 binding, biochemical; active compounds read low; control for the full effect not named in the record. hit rate 0.56% among 360,000; in the data active = activity change below about -65%; inconclusive = about -30% to -65%; inactive = above about -30%; also: % is scaled to controls: 0 for no effect and ±100 for the full control effect
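AlphaScreen with GST-Six1 and His-Eya2 (5X mix: 250 nM and 500 nM), glutathione donor and nickel acceptor beads; buffer 50 mM Tris pH 8.0, 300 mM NaCl, 1 mM TCEP; 1 h at 37 C in the dark.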
D2 ag = activates the human D2 dopamine receptor; DiscoveRx PathHunter D2 beta-arrestin, luminescence, 90 min; 100% = 57 uM dopamine signal; hit rate 0.084% among 360,000; activation, % (test concentration not listed); P14416; in the data active = activation above about 40%; inconclusive = about 15% to 40%; inactive = below about 15%; also: compound concentration not given in the record; the text of the record calls up to 30% inactive
Target sequence (P14416 whole entry, looked up): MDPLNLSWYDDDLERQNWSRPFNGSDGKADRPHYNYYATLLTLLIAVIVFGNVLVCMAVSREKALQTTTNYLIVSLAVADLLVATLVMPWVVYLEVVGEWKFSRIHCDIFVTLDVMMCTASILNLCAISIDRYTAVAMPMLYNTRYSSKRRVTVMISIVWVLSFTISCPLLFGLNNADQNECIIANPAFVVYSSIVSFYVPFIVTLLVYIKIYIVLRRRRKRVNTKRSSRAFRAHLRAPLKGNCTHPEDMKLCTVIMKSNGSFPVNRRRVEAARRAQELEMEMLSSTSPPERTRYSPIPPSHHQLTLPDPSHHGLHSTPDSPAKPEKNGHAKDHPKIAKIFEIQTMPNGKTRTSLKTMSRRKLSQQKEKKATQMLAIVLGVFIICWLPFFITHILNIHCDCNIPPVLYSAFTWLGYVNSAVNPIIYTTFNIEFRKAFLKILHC
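DiscoveRx PathHunter D2 beta-arrestin cells (2,100/well) attached overnight, then compound-stimulated 90 min at 37 C in HBSS/10 mM HEPES/0.1% Tween-20 buffer; beta-galactosidase complementation read by luminescence after 1 h at ambient temperature. Dopamine 57 uM final (EC100) as control.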
PINK1 expr mod = changes PINK1 expression | Potency, µM (doses to about 76.6 µM), for the others: at the highest dose activation (PINK1 increase), hits mostly activators | hit rate 0.2% among 410,000 | PINK1 immunofluorescence, high-content cytometry, 24 h; active = well fitted activation curve with a large enough effect; inconclusive = small, poorly fitted or top-dose-only effect; inactive = flat fitted curve, though single readings scatter; cell line not stated here;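 also: potency is read from the fitted curve at half-maximal effect; % of control where 0% means no effect; nearly all actives have a fitted effect of over 65% in size; a mitochondrial uncoupler was the plate control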
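Fluorescence from anti-PINK1 antibody, together with nuclear and cell stains, was scanned on a laser-scanning cytometer. Before staining, stable-line cells were incubated 24 hours with compounds at 5 concentrations; primary antibody 12 h at 10 degrees C.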
* marks the source's active call; other numbers are inactive results; ? = inconclusive; . = not tested or not shown; [ ] = another dose, or the depositor's remark.

(1) CCOc1ccc2nc(NCCNC(=O)c3cc(OC)c(OC)c(OC)c3)c(C#N)cc2c1
(2) CC(=O)Nc1nonc1-c1nc2ccccc2n1CCC#N
(3) CNC(=S)Nc1cc(OC)c(NC(=O)c2ccco2)cc1OC
(4) O=C(NC1CCCCC1)C1CN(S(=O)(=O)c2ccccc2)CCN1S(=O)(=O)c1ccccc1 (configuration not stated)
(5) Cc1cc(C)n(CCN(C)C(=O)c2cc(COc3c(F)cccc3F)on2)n1
Compound	1	2	3	4	5
TRPML1 blocker	-3	1	11	16	-7
CtBP-E1A blk	.	9	4	5	0
TRPML1 agonist	3.7	-0.4	-0.8	0.8	-0.8
Six1-Eya2 inh	1	-3	3	2	10
D2 ag	-0.4	-1.6	3.1	-1.2	-0.1
PINK1 expr mod	3.1%	?	0.9%	2.2%[38.3 µM]	0.7%

Reprinted, entries 3 to 4
(3) CNC(=S)Nc1cc(OC)c(NC(=O)c2ccco2)cc1OC
(4) O=C(NC1CCCCC1)C1CN(S(=O)(=O)c2ccccc2)CCN1S(=O)(=O)c1ccccc1 (configuration not stated)
Compound	3	4
TRPML1 blocker	11	16
CtBP-E1A blk	4	5
TRPML1 agonist	-0.8	0.8
Six1-Eya2 inh	3	2
D2 ag	3.1	-1.2
PINK1 expr mod	0.9%	2.2%[38.3 µM]

More results follow:
(6) CCOC(=O)c1ccccc1N1C(=O)CSC1=S
(7) COC(=O)C(NC(C)=O)(Nc1ccc(C)cn1)C(F)(F)F (configuration not stated)
(8) Cc1noc(C)c1COc1ccccc1C(=O)N1CCN(c2cccc(Cl)c2)CC1
(9) COc1ccc(C(=O)NCc2nnc(SCC(=O)Nc3ccccc3)n2-c2ccc(F)cc2)cc1
(10) COc1cc(Cl)c(S(=O)(=O)NCCCN2CCOCC2)cc1Cl
Compound	6	7	8	9	10
TRPML1 blocker	7	6	46	-24	8
CtBP-E1A blk	5	-4	.	.	5
TRPML1 agonist	0.0	0.9	0.4	0.0	-0.6
Six1-Eya2 inh	-2	4	-8	.	-3
D2 ag	-0.1	-1.2	-2.8	.	-5.1
PINK1 expr mod	3.6%[38.3 µM]	1.0%	9.8%	-0.2%	0.6%

(11) Cc1ccc(C(=O)Cn2c(-c3ccccc3)noc2=O)cc1
(12) O=C(CCC1N=C2c3ccccc3N=C(SCc3ccc(Cl)cc3)N2C1=O)NCc1cccs1 (configuration not stated)
(13) Cc1cc(O)ccc1Nc1nc(-c2cccnc2)cs1
(14) COc1ccc(S(=O)(=O)c2cn(C)c3cc(N4CCCC4)c(F)cc3c2=O)cc1
(15) O=C(O)CCCCCN1C(=O)C(O)=C(C(=O)/C=C/c2ccccc2)C1c1ccccc1[N+](=O)[O-] (configuration not stated)
Compound	11	12	13	14	15
TRPML1 blocker	3	0	15	4	-4
CtBP-E1A blk	.	.	-3	.	4
TRPML1 agonist	1.5	-0.1	-0.3	-0.8	-0.3
Six1-Eya2 inh	7	.	-14	.	-8
D2 ag	2.7	.	1.5	.	-4.2
PINK1 expr mod	3.6%	0.7%	3.5%	2.5%	0.3%

(16) CC(NC(=O)c1cccc(S(=O)(=O)N2CCN(Cc3ccccc3)CC2)c1)c1ccccc1Cl (configuration not stated)
(17) COc1ccc(-c2noc(CCC(=O)N3CCN(c4cccc(OC)c4)CC3)n2)cc1
(18) Cc1cccc(C(=O)Nc2ccc(S(=O)(=O)N3CCOCC3)cc2)c1[N+](=O)[O-]
(19) COc1ccccc1NC(=O)Cn1nc(-c2ccc3c(c2)OCCO3)ccc1=O
(20) Cc1cccc(NC(=O)c2sc(-n3nc(C)c(CCC(C)C)c3C)nc2C)c1C
Compound	16	17	18	19	20
TRPML1 blocker	45	29	8	-4	11
CtBP-E1A blk	-15	-11	1	-5	.
TRPML1 agonist	-0.5	0.2	-0.1	0.6	1.6
Six1-Eya2 inh	?	-13	-1	-1	.
D2 ag	-10	?	-3.3	-5.9	.
PINK1 expr mod	0.8%	0.0%	0.6%	0.4%	0.1%

(21) CCn1ccc(C(=O)Nc2ccc3c(c2)CCC3)n1
(22) O=C(Nc1nc2ccccc2n1CCN1CCCC1)c1ccc(Cl)cc1
(23) Oc1ccc(-c2nnc(Nc3cccc(O)c3)c3ccccc23)cc1
(24) COc1ccc(C(=O)N/C(=C\c2cn(S(=O)(=O)N(C)C)c3ccccc23)C(=O)NC(C)C)cc1
(25) Cc1ccc(C2(C)NC(=O)N(CC(=O)Nc3cccnc3Cl)C2=O)cc1 (configuration not stated)
Compound	21	22	23	24	25
TRPML1 blocker	1	-19	.	-4	5
CtBP-E1A blk	3	-5	-28	0	-2
TRPML1 agonist	-0.6	0.5	.	-1.0	2.1
Six1-Eya2 inh	13	-7	-14	1	-1
D2 ag	-1.5	-2.5	4.9	-7.4	-0.4
PINK1 expr mod	1.8%	5.9%	0.9%	2.0%	0.6%

(26) Cc1c(Cl)cccc1NC(=O)CN1CCN(CCO)CC1
(27) Cc1c(Cl)cccc1NC(=O)COC(=O)Cn1cnc2c1c(=O)n(C)c(=O)n2C
(28) CCc1cc(=O)oc2cc(C)cc(OC(C)C(=O)NCC(O)c3ccccc3)c12 (configuration not stated)
(29) COc1ccc(-n2c(C)cc(C(=O)CN3CCCCC3)c2C)cc1
(30) COc1ncccc1-c1nnn(-c2ccccc2)n1
Compound	26	27	28	29	30
TRPML1 blocker	-3	-19	-14	4	14
CtBP-E1A blk	-2	1	2	.	6
TRPML1 agonist	0.5	3.8	-0.5	-0.1	0.7
Six1-Eya2 inh	-1	0	6	-9	-2
D2 ag	0.8	1.9	-1.3	-0.9	-3.3
PINK1 expr mod	6.1%[38.3 µM]	0.3%	1.0%	-1.6%	1.3%

(31) NS(=O)(=O)OCCCc1ccccc1
(32) O=C(Nc1cccc(Cl)c1)C1=Cc2cc(Cl)ccc2OC1
(33) CCOC(=O)CNC(=O)Cn1cnc2c(nnn2-c2ccccc2)c1=O
(34) O=C(Nc1ccc(Nc2ccccc2)cc1)c1ccco1
(35) COc1ccccc1C(=O)NC(=O)COC(=O)c1ccco1
Compound	31	32	33	34	35
TRPML1 blocker	-11	14	3	26	-11
CtBP-E1A blk	3	20	3	-20	5
TRPML1 agonist	-0.5	1.5	0.2	-1.0	0.7
Six1-Eya2 inh	7	15	4	-20	4
D2 ag	-2.3	0.6	0.5	-1.0	3.4
PINK1 expr mod	-0.2%	0.8%	1.6%	-0.7%	1.0%

(36) COc1ccc(-c2nc3ccccc3o2)cc1NC(=O)c1ccc(N2CCC(C)CC2)c([N+](=O)[O-])c1
(37) CCOc1ncccc1C(=O)Nc1ccccc1C(=O)NCc1ccc2c(c1)OCO2
(38) CCCCN(C(=O)c1ccc(OC(F)(F)F)cc1)c1c(N)n(CCC)c(=O)[nH]c1=O
(39) Cc1ccc(C)c2sc(N3CCN(C(=O)c4ccco4)CC3)nc12
(40) Cc1c(Br)c([N+](=O)[O-])nn1CC(=O)N(C)Cc1ccccc1
Compound	36	37	38	39	40
TRPML1 blocker	0	-3	-18	32	14
CtBP-E1A blk	.	2	0	.	.
TRPML1 agonist	1.4	1.6	1.0	1.8	1.5
Six1-Eya2 inh	.	0	8	.	3
D2 ag	.	0.9	6.6	.	-3.8
PINK1 expr mod	0.2%	-1.9%	3.3%	0.5%	-1.1%

(41) Cn1c(=O)n(C)c2cc([N+](=O)[O-])c(N3CCN(CCO)CC3)cc21
(42) CCn1c(=O)c(C(=O)NCc2ccccc2)c(O)c2ccccc21
(43) Cc1cccc(CSc2[nH]c(=O)ncc2C)c1
(44) COc1cccc(CNC(=O)c2cc3c(cc2Cl)N2CCCCCC2=NS3(=O)=O)c1
(45) CN1[C@@H](Cc2ccccc2)COc2cc(N3CCSCC3)ccc2S1(=O)=O
Compound	41	42	43	44	45
TRPML1 blocker	-16	3	-9	26	.
CtBP-E1A blk	-15	-5	.	2	-6
TRPML1 agonist	-0.1	-0.1	0.8	-0.5	-0.3
Six1-Eya2 inh	-2	7	3	-2	-6
D2 ag	0.1	-4.8	-1.1	-2.2	.
PINK1 expr mod	-1.1%	6.3%	0.5%	1.9%	0.0%

Structural class, the compounds so far with a nitro group on carbon
(15) O=C(O)CCCCCN1C(=O)C(O)=C(C(=O)/C=C/c2ccccc2)C1c1ccccc1[N+](=O)[O-] (configuration not stated)
(18) Cc1cccc(C(=O)Nc2ccc(S(=O)(=O)N3CCOCC3)cc2)c1[N+](=O)[O-]
(36) COc1ccc(-c2nc3ccccc3o2)cc1NC(=O)c1ccc(N2CCC(C)CC2)c([N+](=O)[O-])c1
(40) Cc1c(Br)c([N+](=O)[O-])nn1CC(=O)N(C)Cc1ccccc1
(41) Cn1c(=O)n(C)c2cc([N+](=O)[O-])c(N3CCN(CCO)CC3)cc21
Compound	15	18	36	40	41
TRPML1 blocker	-4	8	0	14	-16
CtBP-E1A blk	4	1	.	.	-15
TRPML1 agonist	-0.3	-0.1	1.4	1.5	-0.1
Six1-Eya2 inh	-8	-1	.	3	-2
D2 ag	-4.2	-3.3	.	-3.8	0.1
PINK1 expr mod	0.3%	0.6%	0.2%	-1.1%	-1.1%

Further structures follow:
(46) Cc1ccc(N2CCN(CC(O)COc3cccc4ccccc34)CC2)cc1 (configuration not stated)
(47) CCCCn1c(N)c(N(C)C(=O)c2ccccc2Oc2ccccc2)c(=O)[nH]c1=O
(48) CCCCOC(=O)N1CCOCCOCCOCCOCC1
(49) O=C1C2C3C=CC(C3)C2C(=O)N1/N=C/c1cn(Cc2ccccc2)c2ccccc12 (configuration not stated)
(50) CC(=O)N1CCN=C1SCc1ccccc1
(51) CCCCNC(=O)CCSc1nc(-c2ccc3c(c2)OCO3)cc(C(F)(F)F)n1
(52) Cc1cccc(NNC(=O)c2c(F)cccc2Cl)c1
(53) CCC(=O)NCc1nc2ccccc2n1Cc1ccccc1
Compound	46	47	48	49	50	51	52	53
TRPML1 blocker	12	-21	-19	-5	-2	-7	2	16
CtBP-E1A blk	.	-22	3	-11	3	.	.	.
TRPML1 agonist	0.4	-0.2	-0.2	0.2	1.0	-0.8	-0.9	3.0
Six1-Eya2 inh	?	-18	-1	-12	27	.	0	.
D2 ag	8.8	-1.4	0.5	-1.3	-0.1	.	-5.2	.
PINK1 expr mod	?	-1.0%	-0.6%	1.1%	-0.7%	1.4%	1.3%	2.7%
